Screening data as filed in PubChem.
KCNQ2 enhance = potentiators of rat KCNQ2 potassium channel; CHO-K1 KCNQ2, FluxOR thallium flux fluorescence; active compounds read high; B-score at 10 µM; 0.54% of 310,000 active;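 active = fluorescence ratio B-score at least 3 SD of library B-scores, with initial fluorescence B-score within 3 SD, cut at about 5.3 in these data; same plate scores as AID 2156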;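 note: B-score of peak minus minimum over baseline fluorescence ratio after K+ and Tl+ stimulus; positive B-score means potentiation of KCNQ2 with more thallium influx and brighter signal; only the inactives scoring about 0 or higher are listed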
Target sequence (O88943 whole entry, looked up): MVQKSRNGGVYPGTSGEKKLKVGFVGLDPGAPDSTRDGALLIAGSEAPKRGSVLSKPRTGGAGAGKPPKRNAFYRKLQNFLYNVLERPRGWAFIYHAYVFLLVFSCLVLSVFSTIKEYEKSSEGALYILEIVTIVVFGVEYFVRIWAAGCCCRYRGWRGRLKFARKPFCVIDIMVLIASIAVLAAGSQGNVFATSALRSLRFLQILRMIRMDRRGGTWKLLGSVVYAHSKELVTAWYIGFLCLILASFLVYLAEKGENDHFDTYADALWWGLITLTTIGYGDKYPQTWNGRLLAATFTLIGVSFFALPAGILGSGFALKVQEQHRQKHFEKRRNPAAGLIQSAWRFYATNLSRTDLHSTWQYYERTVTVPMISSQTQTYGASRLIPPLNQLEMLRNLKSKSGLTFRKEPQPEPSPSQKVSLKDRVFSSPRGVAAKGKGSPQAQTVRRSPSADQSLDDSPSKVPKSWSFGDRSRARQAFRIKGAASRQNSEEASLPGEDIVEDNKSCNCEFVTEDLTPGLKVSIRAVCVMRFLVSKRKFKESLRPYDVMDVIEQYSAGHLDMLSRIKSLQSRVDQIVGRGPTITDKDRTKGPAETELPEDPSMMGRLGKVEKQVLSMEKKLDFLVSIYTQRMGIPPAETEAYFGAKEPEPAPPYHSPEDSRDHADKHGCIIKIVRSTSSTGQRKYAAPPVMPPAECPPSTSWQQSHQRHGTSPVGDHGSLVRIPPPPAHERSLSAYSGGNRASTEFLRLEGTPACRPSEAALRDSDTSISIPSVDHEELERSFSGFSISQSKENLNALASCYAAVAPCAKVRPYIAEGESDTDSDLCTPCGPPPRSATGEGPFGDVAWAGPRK
KCNQ2 enhance baseline = further read-out of KCNQ2 enhance, marked with its call; B-score; compound at 10 µM; measured here: initial fluorescence intensity artifact check;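 brightness before thallium and not channel activity; 0 = typical well and far values either way flag optical interference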
* = called active by the depositor. Some of the compounds tested. The share of hits here may be higher or lower than overall.

entry | canonical_smiles | KCNQ2 enhance | KCNQ2 enhance baseline
1 | COc1ccc(CCNC(=O)c2ccccc2Cl)cc1OC | 0.56 | 0.24
2 | CC1(C)C2CCC13CS(=O)(=O)N[C@@H]3C2 (stereo partly specified) | 0.41 | 0.15
3 | CN1CCC(N(C)C(=S)NC(=O)C23CC4CC(CC(C4)C2)C3)CC1 | 1.1 | 0.23
4 | c1ccc(Cn2nnc3c(NCCN4CCOCC4)ncnc32)cc1 | 0.01 | -0.9
5 | COc1ccc(N2CCN(CCN3C(=O)c4ccccc4C3=O)CC2)cc1 | 0.96 | -0.76
6 | O=C(COc1ccc([N+](=O)[O-])cc1)NCCc1nc2ccccc2[nH]1 | 1.1 | -0.15
7 | Cc1nc(S(=O)(=O)c2ccc(Cl)cc2Cl)nc2c1CCC2 | 0.45 | -1.9
8 | Cc1cccc(CC(C)NC(=O)CCc2nnc(-c3ccccc3)o2)n1 (stereo unspecified) | 0.04 | -0.24
9 | Cc1cccc(OCc2nnc(N)s2)c1C | 0.15 | 0.31
10 | COCCC(=O)N1CCCC(CCC(=O)NCc2ccc(F)c(F)c2)C1 (stereo unspecified) | 0.26 | 0.72
11 | CC(NC(=O)c1cccc(S(=O)(=O)N2CCN(C)CC2)c1)C1CC2CCC1C2 (stereo unspecified) | 1.2 | -0.96
12 | COc1ccc(Nc2nc(N)nc(CSc3nccc(C)n3)n2)cc1 | 3.6 | -1.2
13 | Cc1ccc2nc(-c3ccc(NC(=O)COCC(=O)O)cc3)sc2c1 | 0.4 | -0.08
14 | O=C(NCc1ccc(Cl)cc1)C1CCCN(c2cnccn2)C1 (stereo unspecified) | 0.38 | -0.95
15 | Cc1ccc(S(=O)(=O)N2CCCC(C(=O)NC3=NCCS3)C2)cc1 (stereo unspecified) | 1.2 | 1.7
16 | C/C=C\C=C/C(=O)Nc1cccc(C2=NOC3(C2)C[C@@H](C(N)=O)N(C(=O)C2(C)CC2)C3)c1 (stereo partly specified) | 0.44 | -0.75
17 | CCOCCOC(=O)C1=C(C)N(C)C(=O)NC1c1cc(Cl)c(O)c(OC)c1 (stereo unspecified) | 0.03 | 0.27
18 | O=C(COc1ccc(Cl)cc1)Nc1ccc2[nH]ncc2c1 | 0.58 | -0.68
19 | CC1(C)CC(=O)C/C(=N\NC(=O)C2CC2c2ccccc2)C1 (stereo unspecified) | 1 | -0.09
20 | CC(=O)NCC(=O)OC(C(=O)c1ccccc1)c1ccc(Cl)cc1 (stereo unspecified) | 1.1 | 0.68
21 | O=C1OCC2=C1C(c1ccc(Cl)cc1)CC(=O)N2c1ccc(F)cc1 (stereo unspecified) | 1.1 | -0.3
22 | Cc1cccc(C)c1NC(=O)NCCSc1snnc1C | 2.1 | -0.89
23 | Clc1cccc(-c2noc3ncnc(Nc4ccc5c(c4)OCO5)c23)c1 | 0.71 | -1.2
24 | CC1(C)CC(=O)c2cc(C(=O)NCc3ccco3)c(=O)n(-c3ccccc3)c2C1 | 0.47 | 0.55
25 | CCn1c(SCC(=O)NCc2ccco2)nc2c1c(=O)n(C)c(=O)n2C | 1.4 | -0.44
26 | O=C(CSc1ccccc1)Nc1ccccc1C(=O)N1CCCC1 | 0.64 | -1.1
27 | Cc1nc2nc(-c3ccc(Cl)cc3)[nH]n2c(=O)c1Cc1ccccc1 | 1.2 | -0.55
28 | Nc1nonc1OCCc1ccccc1 | 0.92 | -0.46
29 | CCC1(C)Cc2c(sc3nc(SC)nc(NCCN(C)C)c23)CO1 (stereo unspecified) | 0.66 | -0.5
30 | CC1(C)CC(NC(=O)c2ccc(Cl)c(S(=O)(=O)N(Cc3ccccc3)c3ccccc3)c2)CC(C)(C)N1 | 0.19 | 0.42
31 | Cc1cccc(N2CCN(C(=O)CCNS(=O)(=O)c3ccc4c(c3)oc(=O)n4C)CC2C)c1 (stereo unspecified) | 1.1 | 1.4
32 | CCOc1cc(C2C(C(=O)c3ccc(C)o3)=C(O)C(=O)N2CCc2ccccc2)ccc1O (stereo unspecified) | 0.24 | -0.42
33 | CCCC(=O)C1CCN(Cc2ccccc2)CC1 | 0.54 | -0.54
34 | CC(=O)NN1C(=O)c2ccccc2NC1c1ccccc1O (stereo unspecified) | 0.45 | 0
35 | CCc1c(C)nc2ncnn2c1Nc1ccc(C(C)=O)cc1 | 0.13 | 1.7
36 | CCOC1CCc2c(C)nc(N)nc2S1 (stereo unspecified) | 1.7 | 1.4
37 | O=C(c1ccco1)N1CCCC(c2nc3c(nnn3Cc3ccc(F)cc3)c(=O)[nH]2)C1 (stereo unspecified) | 0.8 | -0.75
38 | COc1cccc(NC(=O)c2ccc(NC(C)=O)cc2)c1 | 1.1 | -0.92
39 | CN(C)C(=O)N1CCN(C(=O)c2ccco2)CC1 | 0.07 | -0.29
40 | Cc1ccc(-n2[nH]c(C)c(C=Nc3cc(C)ccn3)c2=O)cc1 | 0.52 | -0.03
41 | COc1cc(C(=O)OCCn2c(=O)c3c(ncn3CCN(C)C)n(C)c2=O)cc(OC)c1OC | 0.16 | 2.5
42 | COc1ccc(C2OC(=O)CC2C(=O)NCc2ccc(F)cc2)cc1OC (stereo unspecified) | 1.6 | 0.03
43 | CC(=O)OCCCCCCCCCCC[N+]1(C)CCCCC1 | 0.83 | 0.5
44 | O=C(Nc1cc(S(=O)(=O)N2CCOCC2)ccc1O)c1ccc2c(c1)S(=O)(=O)c1ccccc1C2=O | 0.51 | 0.25
45 | C=CCNC(=O)CN1CCC(n2nnc3cc(C(F)(F)F)ccc32)CC1 | 0.7 | -0.17
46 | Fc1ccc(-c2ccnn2-c2ccccc2)cc1 | 0.24 | 0.81
47 | Cc1nc2c(cc1N)nc(C)n2Cc1ccccc1 | 0.9 | 0.42
48 | COc1ccc(NC(=O)CSc2ccc(-c3ccco3)nn2)cc1OC | 1.1 | -0.07
49 | NS(=O)(=O)c1cccc(NC(=S)NCc2ccccc2)c1 | 0.31 | 0.71
50 | Cc1ccc(CNC(=O)C2CCN(S(=O)(=O)c3ccc4nc5c(c(C(=O)O)c4c3)CC(C)CC5)CC2)cc1 (stereo unspecified) | 0.57 | -0.59
51 | O=c1cc(CN2CCCCC2)nc(C2CC2)[nH]1 | 0.01 | -0.87
52 | COCCOC(=O)c1c(C)oc2ccc(O)c(CN3CCC(C)CC3)c12 | 0.11 | 1.2
53 | O=C(Cc1cccs1)Nc1ccccc1F | 1.4 | -0.14
54 | CCCCC1CC1C(=O)Nc1ncc2c(n1)CC(C)(C)CC2=O (stereo unspecified) | 1.2 | -1.7
55 | CCn1cc(CNCc2c(C(=O)N3CCCCC3)nc3c(C)cccn23)cn1 | 0.76 | 0.92
56 | Cc1cccc(CCNS(=O)(=O)c2ccc3c(c2)NC(=O)CO3)c1 | 1.2 | 0.31

Next section
entry | canonical_smiles | KCNQ2 enhance | KCNQ2 enhance baseline
57 | CCn1cc(C(=O)NCC(=O)OC)c2cc(OC)c(OC)cc2c1=O | 0.57 | 2.2
58 | Fc1ccc(C2NCCn3cccc32)cc1 (stereo unspecified) | 1.4 | 2
59 | Cc1nnc(CN(C)C(=O)c2cc(COc3ccc(F)cc3Cl)on2)o1 | 0.29 | 0.74
60 | Cc1noc(C)c1CSCC(=O)OCC(=O)Nc1sccc1C#N | 0.4 | -1.8
61 | CCc1noc(C)c1C(=O)NCCN1C(=O)S/C(=C\c2ccc(OC)cc2)C1=O | 2.7 | 0.35
62 | Cc1cccc(C(=O)Nc2ccc(O)cc2)c1 | 1.5 | 1.6
63 | COc1ccc(NC(=O)CCCN2C(=O)/C(=C\c3ccco3)SC2=S)cc1 | 0.35 | -0.26
64 | O=S(=O)(c1cccc2cccnc12)N1CCN(c2ccc(F)cc2)CC1 | 1.1 | -0.13
65 | Cc1ccc(-n2ncc3c(NCc4cccnc4)ncnc32)cc1C | 0.23 | 0.15
66 | COC(=O)c1cccc(C23CC4(C2)[C@H](CN(Cc2ccc(C(F)(F)F)cc2)[C@@H]4c2ccccc2)C3c2ccc(C(F)(F)F)cc2)c1 (stereo partly specified) | 0.38 | -0.6
67 | O=C(N/N=C/c1cccnc1)c1ccc(Cl)c(Cl)c1 | 0.02 | 3.6
68 | Cc1nn(CCC(=O)NNC(=S)Nc2ccc(F)cc2)c(C)c1[N+](=O)[O-] | 0.32 | -1.5
69 | O=C(O)c1cc(-c2ccc(/C=N/NC(=S)Nc3ccccc3)o2)ccc1Cl | 2.4 | -1.7
70 | COc1ccc(CCNC(=O)CSc2nc3sc(C(=O)O)c(C)c3c(=O)[nH]2)cc1OC | 0.49 | 0.08
71 | CC1(C)C2CCC1(CS(=O)(=O)NCc1ccc(C(=O)O)cc1)C(=O)C2 (stereo unspecified) | 0.65 | 0.77
72 | CCCn1c(SCC(=O)Nc2nnc(C(C)C)s2)nc2c1c(=O)n(C)c(=O)n2C | 1.3 | 0.99

Exported screen by screen: 4 of the compounds above
48: COc1ccc(NC(=O)CSc2ccc(-c3ccco3)nn2)cc1OC
49: NS(=O)(=O)c1cccc(NC(=S)NCc2ccccc2)c1
50: Cc1ccc(CNC(=O)C2CCN(S(=O)(=O)c3ccc4nc5c(c(C(=O)O)c4c3)CC(C)CC5)CC2)cc1 (stereo unspecified)
51: O=c1cc(CN2CCCCC2)nc(C2CC2)[nH]1
Assay by compound,48,49,50,51
KCNQ2 enhance,1.1,0.31,0.57,0.01
KCNQ2 enhance baseline,-0.07,0.71,-0.59,-0.87

Returning to the listing with the 4 entries that preceded the break.
entry | canonical_smiles | KCNQ2 enhance | KCNQ2 enhance baseline
69 | O=C(O)c1cc(-c2ccc(/C=N/NC(=S)Nc3ccccc3)o2)ccc1Cl | 2.4 | -1.7
70 | COc1ccc(CCNC(=O)CSc2nc3sc(C(=O)O)c(C)c3c(=O)[nH]2)cc1OC | 0.49 | 0.08
71 | CC1(C)C2CCC1(CS(=O)(=O)NCc1ccc(C(=O)O)cc1)C(=O)C2 (stereo unspecified) | 0.65 | 0.77
72 | CCCn1c(SCC(=O)Nc2nnc(C(C)C)s2)nc2c1c(=O)n(C)c(=O)n2C | 1.3 | 0.99
73 | CCO[C@H]1OC(C(=O)Nc2ccccc2)=C[C@@H](C)[C@@H]1CCCO | 0.89 | 0.24
74 | CCNC(=O)NC1(C(=O)Nc2ccc3c(c2)OCCO3)CCCCC1 | 0.14 | 0.41
75 | COc1ccc(NC(=O)CCN2C(=O)c3ccccc3S2(=O)=O)c(OC)c1 | 1.3 | -0.83
76 | O=[N+]([O-])c1ccc(S(=O)(=O)NNC(=S)NCCc2ccccc2)cc1 | 2.1 | 0.02
77 | CCCOC(=O)c1ccc(Oc2coc3c(CN(CC)CC)c(O)ccc3c2=O)cc1 | 0.2 | 0.07
78 | COc1ccc(Cc2noc(CN(C)CC(O)c3ccccc3)n2)cc1OC (stereo unspecified) | 1.8 | -0.44
79 | CC(=O)Nc1cccc(NC(=O)C(=O)NCC(c2ccco2)N2CCc3ccccc32)c1 (stereo unspecified) | 0.15 | -1.3
80 | COc1ccc(CN2CCCN(C)CC2)c(OC)c1C | 0.23 | -0.04
81 | NS(=O)(=O)c1ccc(CNC(=O)CCC2CCCCC2)cc1 | 2.4 | -0.92
82 | CC1CCc2c(c3ccccc3n2C(=O)CCl)C1 (stereo unspecified) | 1.5 | -0.41
83 | C=CCn1c(Cc2ccc(OC)cc2)nnc1SCc1nc2ccccc2c(=O)[nH]1 | 1.3 | -0.72
84 | CC(=O)Nc1sc2c(c1C(N)=O)CCC2 | 0.81 | 1.6
85 | COc1ccccc1Nc1c([N+](=O)[O-])cncc1[N+](=O)[O-] | 1.3 | 0.16
86 | CC(C)(C)c1nc(NC(=O)Nc2ccccc2)sc1Br | 2 | -1.4
87 | O=C(c1cc(F)ccc1F)C1CCCN(Cc2cccn2-c2ccccn2)C1 (stereo unspecified) | 1.4 | -0.14
88 | O=C(Nc1cccc(Oc2c(F)c(F)c(F)c(F)c2F)c1)N1C[C@@H]2C[C@@H](C1)c1cccc(=O)n1C2 | 0.01 | 1.5
89 | COc1ccc(OC)c(S(=O)(=O)n2nc(-c3ccccc3)cc2N)c1 | 2.1 | -0.52
90 | CCCCN(C)C(=S)Nc1ccc2nc3n(c(=O)c2c1)CCCCC3 | 0.02 | -0.02
91 | O=[N+]([O-])c1ccc(N2CCN(c3nc(-c4ccc(Cl)cc4)cs3)CC2)cc1 | 0.2 | 0.97
92 | Cn1c(=O)c2c(ncn2CC(=O)N/N=C/c2ccc(Br)s2)n(C)c1=O | 0.92 | -0.13
93 | COc1cc2c(cc1OC)CN(C(=O)CN(C)S(=O)(=O)c1ccc(NC(C)=O)cc1)CC2 | 0.78 | -0.78
94 | CCOC(=O)c1ccccc1NC(=O)c1ccc2c(=O)n3c(nc2c1)CCCCC3 | 0.02 | -0.65
95 | COc1ccccc1NC(=O)NC1CCS(=O)(=O)C1 (stereo unspecified) | 0.81 | 0.14
96 | COCCCNC(=O)c1cccc(S(=O)(=O)N2CC3(C)CC2CC(C)(C)C3)c1 (stereo unspecified) | 1.7 | -0.21
97 | O=C(O)CCCCCNC(=O)CCn1nnc2ccccc2c1=O | 0.78 | 0
98 | COc1ccc(CCNC(=O)C2CCC(=O)N(C3CC3)C2)c(OC)c1 (stereo unspecified) | 0.46 | 0.38
99 | CCOC(=O)c1c(C)[nH]c(C(=O)OCC(=O)NC2CCS(=O)(=O)C2)c1C (stereo unspecified) | 0.21 | -0.56
100 | O=C(Nc1cccc(Cl)c1)C1C2C=CC3(O2)C1C(=O)N(CCCN1CCCCC1)C3C(=O)NC1CCCCC1 (stereo unspecified) | 0.99 | 0.71
101 | CC1CC(C)(C)NC(=S)N1CCCC(=O)N1CCN(c2ccccc2F)CC1 (stereo unspecified) | 0.54 | -1.9
102 | Cc1oc(-c2ccccc2F)nc1CS(=O)(=O)CC(=O)N1CCN(Cc2ccccc2)CC1 | 0.71 | -0.38
103 | CN1CCN(CC(=O)Nc2ccccc2Sc2ccccc2)CC1 | 0.74 | -1.6
104 | Cc1ccc(C(=O)NCC(=O)OCC(=O)c2ccc3c(c2)NC(=O)CO3)cc1C | 0.7 | 0.83
